Screening data deposited in PubChem BioAssay by National Center for Advancing Translational Sciences (NCATS).
GLA inh pH 4.5: alpha-galactosidase A (human) inhibition, pH 4.5 | P06280 | purified enzyme, 4-MU-alpha-Gal fluorescence, pH 4.5 | activity change, negative = inhibition, % at 105 µM | 230,000 tested, under 10 active; inconclusive = small, poorly fitted or top-dose-only inhibition, or a rising curve; inactive = flat fitted curve, though single readings scatter; no compound was filed as active;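 further: 0% = full activity with enzyme and -100% = basal without enzyme; dose as in the result columns while the protocol names 77 µM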
Target sequence (P06280 whole entry, looked up): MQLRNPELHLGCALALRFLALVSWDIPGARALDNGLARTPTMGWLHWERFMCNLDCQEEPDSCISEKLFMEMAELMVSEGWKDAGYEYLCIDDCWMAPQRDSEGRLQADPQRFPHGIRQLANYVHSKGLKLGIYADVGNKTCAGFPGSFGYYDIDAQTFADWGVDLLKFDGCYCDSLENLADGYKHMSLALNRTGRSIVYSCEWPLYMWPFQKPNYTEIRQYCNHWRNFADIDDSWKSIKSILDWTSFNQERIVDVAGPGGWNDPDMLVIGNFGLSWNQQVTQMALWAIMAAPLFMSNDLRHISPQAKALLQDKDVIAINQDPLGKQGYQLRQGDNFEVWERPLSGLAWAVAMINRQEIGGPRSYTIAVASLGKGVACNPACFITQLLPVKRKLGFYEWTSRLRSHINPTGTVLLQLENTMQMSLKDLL
Rango complex inh: inhibitors of Rango-importin beta complex formation; Potency, µM (series often up to 92.2 µM), for the others: at the highest dose inhibition of complex formation; Q14974; AID 540263; Rango CFP/YFP FRET sensor + importin beta, 45 min; hit rate 0.031% among 340,000; active = rising FRET ratio curve, often small or poorly fitted; inconclusive = mostly compound fluorescence or quenching in the first reads; inactive = flat curves in all reads;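 further: potency means the concentration at half of the fitted maximal effect; 0% = DMSO wells and 100% = buffer wells lacking importin beta; nearly all actives have a fitted effect of over 15% in size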
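Inhibition scored from the CFP 486 nm/YFP 530 nm FRET ratio 45 min after adding 0.125 microM importin beta to 50 nM Rango biosensor preincubated 5 min with compound (room temperature, PBS with DTT, Tween-20, BSA). No-importin wells as positive control.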
Rango dissoc inh: prevents RanGTP from dissociating the Rango-importin beta complex | Biochemical FRET Rango-importin beta, RanGTP-induced dissociation | Potency, µM (highest dose often 46.1 µM), without a hit: at the top dose activity change, negative = inhibition | O95149+P62826 | hit rate 0.071% among 340,000 | AID 540253; active means falling FRET ratio curve, often poorly fitted, with flat reads before Ran was added; inconclusive means other falling curves, or compound fluorescence or quenching; inactive means flat or rising ratio curve;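 further: potency means the concentration at half of the fitted maximal effect; % of control where 0% means no effect; nearly all actives have a fitted effect of over 45% in size; -100% = wells without RanGTP and RCC1; the record marks most hits as doubtful in a second field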
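Compounds preincubate 5 min with complex of recombinant Rango and importin beta in PBS with 1 mM DTT. Ran (0.6 uM) loaded with 2 mM GTP plus 0.2 uM RCC1 starts dissociation; FRET is recorded 45 min later.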
miR-21 reporter: raises the signal of a miR-21 reporter | HeLa miR-21 FLuc reporter, luciferase, 48 h | Potency, µM (highest dose often 38.3 µM), for the others: top-dose reporter change, positive = more light | 340,000 tested, under 10 active | AID 2288; active = well fitted rising curve with a large enough effect; inconclusive = small, poorly fitted or top-dose-only effect; inactive = no such curve, though single readings can be large or run the other way;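 further: % of control where 0% means no effect; miR-21 action dims this reporter so a rising signal means less miR-21 action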
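HeLa cells stably expressing CMV-driven firefly luciferase with a downstream miR-21 binding sequence, endogenously expressing miR-21, were treated with titrations (up to about 40uM final) for 48 hours at 37 degree Celsius. Luciferase luminescence was read after lysis.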
* hit, by the source's call; u = inconclusive; x = no result given; & = joins results of further samples; [ ] = another dose, or the depositor's remark. The list is partial; rates above refer to the full screens.

SMILES	GLA inh pH 4.5	Rango complex inh	Rango dissoc inh	miR-21 reporter
CC(=NNC(=O)C(C)SC(C)C(=O)NN=C(C)c1cccnc1)c1cccnc1 (stereo unspecified)	x	-0.9%	8%	x
CCCn1c(SCC(=O)Nc2cc(Cl)ccc2OC)nc(O)cc1=O	x	0.3%	11%	x
CCc1nn(-c2ccccc2)c(N)c1C#N	3	-0.3%	-7%	-11%
N=c1ccn(Cc2cccc(F)c2)cc1	-4	-1.1%	-2%	24%
O=C(COc1ccccc1)Nc1ncccn1	6	-0.1%	-6%	-24%
O=[N+]([O-])c1ccc(Nc2ccc3ccccc3c2)nc1	-20	-1.7%	-17%	-39%
Oc1ccccc1-c1nc2ccccc2nc1-c1ccccc1	-2	4.3%	-10%	-1%
CCc1cccc(Nc2cc(C)nc3ncnn23)c1	-4	1.5%	-4%	-11%
O=C(O)CCC(=O)Nc1ccc(S(=O)(=O)Nc2nccs2)cc1	0&0&-3	-1.2%	-3%	-3%
COc1cc(-c2c(-c3ccc4c(c3)OCO4)noc2C)ccc1F	x	-5.6%	-19%	5%
C#CCN(C(=O)Nc1ccccc1)c1ccccc1	7	0.2%	1%	-1%
Nc1ncc(Br)cc1Br	4	-0.6%	0%	-6%
N#Cc1c(Nc2ccccc2Cl)s[nH]c1=O	-5	-0.1%	-5%	1%
CC12CCC(C(=O)CC1=O)C2(C)C (stereo unspecified)	x	-1.6%	-5%	x
CC(C)C(=O)N1CCN(c2ccccc2N)CC1	2	3.9%	-13%	-8%
CCN1C(=O)C(CC(=O)Nc2cccc(C(C)=O)c2)S/C1=N\c1ccccn1 (stereo unspecified)	5	-2.4%	-12%	0%
CC(C)c1ccccc1NC(=O)Nc1ccc2c(c1)OCO2	x	-0.6%	1%	-19%
COc1ccc(NC(=O)NC2(C(=O)N3CCCCCC3)CCCCC2)cc1	5	0.7%	-9%	-5%
C=CCN(c1ccccc1)S(=O)(=O)c1cccc(C(=O)NCc2ccncc2)c1	x	-0.7%	6%	x
Cc1onc(-c2c(Cl)cccc2Cl)c1C(=O)c1c[nH]c(C(=O)NCC2CCCO2)c1 (stereo unspecified)	-3	-1.6%	-3%	24%
N#Cc1ccc(OCc2cccc(S(=O)(=O)N3CCOCC3)c2)cc1	x	3.9%	-14%	x
O=C(NC1CCN(C(=O)N2CCOCC2)CC1)c1ccccc1	2	-0.3%	0%	-3%
COc1ccccc1N1CCSC1C(N)=O (stereo unspecified)	-13	-0.5%	-1%	1%
Cc1ccc(S(=O)(=O)N(C)CC(=O)Nc2ncccc2C)cc1	x	3.4%	21%	x
N#Cc1ccc(NC(=O)C2CC(c3ccc(F)cc3)=NO2)cc1 (stereo unspecified)	-1	0.9%	-2%	-5%

Six compounds out of the list above, sorted by their value in miR-21 reporter, falling.
SMILES	GLA inh pH 4.5	Rango complex inh	Rango dissoc inh	miR-21 reporter
CCN1C(=O)C(CC(=O)Nc2cccc(C(C)=O)c2)S/C1=N\c1ccccn1 (stereo unspecified)	5	-2.4%	-12%	0%
Oc1ccccc1-c1nc2ccccc2nc1-c1ccccc1	-2	4.3%	-10%	-1%
O=C(O)CCC(=O)Nc1ccc(S(=O)(=O)Nc2nccs2)cc1	0&0&-3	-1.2%	-3%	-3%
Nc1ncc(Br)cc1Br	4	-0.6%	0%	-6%
CCc1nn(-c2ccccc2)c(N)c1C#N	3	-0.3%	-7%	-11%
O=[N+]([O-])c1ccc(Nc2ccc3ccccc3c2)nc1	-20	-1.7%	-17%	-39%

(more compounds)
SMILES	GLA inh pH 4.5	Rango complex inh	Rango dissoc inh	miR-21 reporter
CC(C)CCNC(=O)c1onc(CSc2ccccn2)c1C(=O)NCCC(C)C	x	-2.9%	7%	x
COc1ccc(NS(=O)(=O)c2cc(NS(=O)(=O)c3cccs3)ccc2C)cc1	x	1.3%	-15%	x
CCOC(=O)/C(=C\Nc1ccc(OC(F)(F)F)cc1)Sc1ncc(C(F)(F)F)cc1Cl	-6	2.6%	-2%	3%
COc1cc2c(cc1OC)C(=O)Cc1ccc3c(c1CN(C)CC2)OCO3	-7&-4&4	-1.4%	2%	-3%
CCOc1ccc(CN2CCNC(=O)C2CC(=O)NCCc2cnccn2)cc1 (stereo unspecified)	x	u	11%	3%
CCOC(=O)c1c(C)[nH]c(C)c1S(=O)(=O)NCC(=O)Nc1ccccn1	x	6.3%	-14%	2%
COC(=O)c1c(NS(=O)(=O)c2cccs2)sc2c1CCCC2	6	0.1%	-14%	2%
CCOc1ccc(NC(=O)CN(C)C(=O)c2cc(S(=O)(=O)N3CCCCC3)ccc2C)cc1OCC	x	-1.6%	4%	x
Cn1cc(CN2CCC[C@H]2CO)c(-c2cccc(Cl)c2)n1	0	0.2%	0%	-3%
CC1SC(C)C(=O)N(CC(=O)NCc2ccc(F)cc2)C1=O (stereo unspecified)	-2	0.0%	-7%	-3%
Cc1c(NC(C)c2cc(Cl)ccc2O)c(=O)n(-c2ccccc2)n1C (stereo unspecified)	1	0.4%	-11%	-2%
CCCCN1c2ccccc2N(CCCO)c2cc(C)nnc21	5	u	2%	-17%
O=C(NCc1ccccc1CN1CCCC1)C1CCN(C(=O)c2ccc(F)cc2)CC1	x	3.6%	18%	x
COc1cccc(C2Nc3ccc4ccccc4c3C3=C2C(=O)CC(C)(C)C3)c1OCC(=O)O (stereo unspecified)	x	u	u	-2%
CCn1cc(/C=C/C(=O)c2ccc(O)cc2)c(C)n1	-12	u	-11%	-8%
Cc1ccc(S(=O)(=O)NCC(c2cccnc2)N2CCN(Cc3ccccc3)CC2)cc1 (stereo unspecified)	x	4.6%	4%	0%
COc1ccc(C2=NOC3(CC(=O)N(c4ccc(C)cc4)C3=O)C2)cc1 (stereo unspecified)	5	-2.3%	1%	-12%
CCN(CC)S(=O)(=O)c1ccc(C(=O)NCc2n[nH]c(=S)n2-c2ccc(Cl)c(Cl)c2)cc1	-15	5.2%	-8%	-6%
COc1cccc(C(=O)Nc2ccc3nc4n(c(=O)c3c2)CCCC4)c1	x	-4.0%	5%	-33%
CN(CC(=O)Nc1ccccc1Cl)C(=O)COC(=O)/C=C/c1ccccc1	x	-0.3%	-2%	x
CC(C)CC1Nc2ncnc(N3CCOCC3)c2N(Cc2ccccc2)C1=O (stereo unspecified)	x	2.8%	-2%	x
COc1cc(C(=O)OCC(=O)Nc2cccc(S(=O)(=O)N3CCOCC3)c2)ccc1OCC(C)C	x	-4.9%	1%	x
C=CCn1c(=O)c(C(=O)Nc2cccnc2)c(O)c2ccccc21	4	0.8%	-9%	-9%
CS(=O)(=O)Nc1ccc(S(=O)(=O)NC2CCCCC2)cc1	5	-3.5%	-17%	0%
COc1ccc(-c2cn(-c3ccc(C)cc3C)c(=S)[nH]2)cc1OC	x	u	21%	0%
Further records follow.
SMILES	GLA inh pH 4.5	Rango complex inh	Rango dissoc inh	miR-21 reporter
C=CCOc1c(Br)cc(CNc2ccc(NC(=O)C(C)C)c(OC)c2)cc1OCC	-28	-0.2%	-19%	0%
CCCSc1nc2cc(OC)c(OC)cc2c(=N)n1CCCN1CCOCC1	-3	-4.5%	1%	-1%
COc1ccc(NC(=O)CC2C(=O)N(c3cccc(C)c3)C(=O)N2C2CCCCC2)cc1 (stereo unspecified)	-2	0.4%	12%	0%&0%
CCOc1ccc(OCC)c(S(=O)(=O)N2CCCCC2)c1	2	1.5%	16%	2%
Oc1cccc(NC(=S)Nc2cccnc2)c1	10	-1.7%	-9%	3%
CCc1noc(C)c1C(=O)OCC(=O)NCc1ccccc1	x	-1.7%	0%	x
CCOC(=O)C1CCN(C(c2cc3ccc(C)c(C)c3[nH]c2=O)c2nnnn2C2CCCCC2)CC1 (stereo unspecified)	-7	-3.1%	-9%	0%
Cc1c(NC(=O)c2noc(C(C)C)c2[N+](=O)[O-])c(=O)n(-c2ccccc2)n1C	0	3.2%	-15%	-2%
CC(SCc1cn2cc(Cl)ccc2n1)C(=O)O (stereo unspecified)	8	4.5%	-6%	-4%
COc1ccccc1C(c1nnnn1C(C)(C)C)N1CCN(Cc2ccccc2)CC1 (stereo unspecified)	-4	1.9%	0%	-1%
N#Cc1ccc(C(=O)N(Cc2ccco2)c2c(N)n(Cc3ccccc3)c(=O)[nH]c2=O)cc1	x	7.0%	4%	x
COCCSc1nnc(NC(=O)CSc2ccccc2)s1	6	-5.1%	-4%	-11%
C[C@@H](NCCc1ccc(O)cc1)[C@@H](O)c1ccc(O)cc1	-3	-2.8%	-8%	x
CCCNc1c(F)c(F)c2c(C)c3ccccc3nc2c1F	4	u	u	-47%
COc1cc(OC)cc(C(=O)NCCSC2CCCCC2)c1	-5	-0.4%	0%	-7%
CCc1ccc(N2CC(C(=O)Nc3ccc(S(=O)(=O)N4CCCCC4)cc3)CC2=O)cc1 (stereo unspecified)	x	2.6%	7%	-1%
O=C(Cc1ccccc1)NN1C(=O)/C(=C/c2ccccc2C(=O)O)SC1=S	-7	-0.1%	6%	-3%
CC(=O)N/C(=N/c1nc(C)cc(C)n1)Nc1ccc(NC(C)=O)cc1	-4	u	22%	-4%
CC1(C)CC(CC(=O)O)CC(C)(C)N1	2[21.1 µM]	6.1%	-1%	2%
Cc1ccsc1C(=O)Nc1ccc(S(=O)(=O)N2CCOCC2)cc1	x	-0.7%	-19%	x
COc1ccc(CNC(=O)[C@@H](C)NC(=O)C2CCN(C(=O)[C@@H](N)CCSC)CC2)cc1	x	-0.8%	-7%	-1%
CCOc1ccc(OCC)c(S(=O)(=O)NCCOC23CC4CC(CC(C4)C2)C3)c1	-9	u	0%	21%
CC1OC2(OC1C)C(=O)Nc1ccccc12 (stereo unspecified)	1	-2.9%	6%	-3%
CS(=O)(=O)N(CC(=O)N1CCN(c2ccccc2F)CC1)c1ccc2c(c1)OCCO2	0	-5.1%	-9%	1%
NC(=O)c1ccc2c(c1)S(=O)(=O)c1ccccc1C2=O	-5	-0.1%	7%	-10%
Next results:
SMILES	GLA inh pH 4.5	Rango complex inh	Rango dissoc inh	miR-21 reporter
COc1cc(NC(=O)CN2C(=O)NC(C)(c3ccc4ccccc4c3)C2=O)c(C)cc1[N+](=O)[O-] (stereo unspecified)	-6	-1.4%	2%	7%
CCCC[C@H](CN(N=O)[C@@H](Cc1ccccc1)CN(C)N=O)N(CCc1ccccc1)N=O	-25	2.4%	-2%	0%
Cn1nc(C(F)(F)F)c(C(=O)Nc2ccc(Cl)cc2)c1Cl	9	-4.9%	9%	-4%
CC1(NCc2ccc(Cl)cc2)COP(=O)(NCc2ccccc2)OC1 (stereo unspecified)	x	0.3%	-2%	x
CCCc1nc(NCc2ccccn2)c2nnn(Cc3ccccc3F)c2n1	3	-0.4%	-9%	-2%
O=C(COC(=O)C1CCN(S(=O)(=O)c2ccc3c(c2)OCCO3)CC1)Nc1cccc2ccccc12	-7	0.5%	u	0%
CN(C)C(=O)/C(=C\c1cccc(Oc2ccccc2)c1)NC(=O)c1ccccc1	8	4.2%	30%	-3%
CCN(CC)S(=O)(=O)c1cc(NC(=O)CSc2nccn2C)ccc1C	6	-0.6%	-15%	-30%
CC(C)C1Nc2ccc(S(N)(=O)=O)cc2C2C=CCC21 (stereo unspecified)	-2	u	u	-3%
COc1ccc(C(c2sc3nc(C)nn3c2O)N2CCC(O)CC2)cc1OC (stereo unspecified)	1	-3.2%	12%	-9%
COc1ccc(NC2CCCN(C(=O)c3ccc4nc(C)c(C)nc4c3)C2)cc1OC (stereo unspecified)	x	-0.3%	2%	-2%
CCCCCC(=O)NC(=S)Nc1ccc(N2CCOCC2)cc1	-19	2.8%	-10%	-3%
CCOC(=O)/C=C/C(=O)Nc1ccc(S(=O)(=O)N2CCc3ccccc32)cc1	x	0.6%	-1%	12%
CCC(=O)N1c2ccccc2NC2=C(C(=O)CCC2)C1c1ccco1 (stereo unspecified)	-3	-1.0%	-5%	-1%
O=C1C2C3C=CC(CC3)C2C(=O)N1c1ccc(Cl)cc1 (stereo unspecified)	x	-4.5%	5%	1%
